LANA-H2A inh = blocks KSHV LANA binding to histone H2A/H2B. cell-free LANA-H2A/H2B peptide, fluorescence polarization. inhibition, % (no concentration beside the values). actives 0.6% (n = 320,000). AID 2629; in the data active = inhibition mostly above about 10%, no sharp cut-off; inactive = mostly below about 6.7%;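 also: stock transfer was 7.5 nL into about 10 µL; 0% = median of vehicle wells and 100% = median of positive control wells; one replicate is shown; the record names a cut of 25% in any replicate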
B2AR ag = agonists of human beta-2 adrenergic receptor inducing internalization; P07550; Am2.2-beta2AR cells, FAP receptor internalization, flow cytometry; reference of the scale not given here; response, % (concentration not given with the values); actives 0.43% (n = 340,000);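 active = response above a set limit, near 3 SD of response in nonfluorescent compounds, cut at about 42% in these data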;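 also: stock transfer was 100 nL into about 11 µL; a reference agonist was the positive control; negative values mostly stem from fluorescent compounds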
Target sequence (P07550 whole entry, looked up): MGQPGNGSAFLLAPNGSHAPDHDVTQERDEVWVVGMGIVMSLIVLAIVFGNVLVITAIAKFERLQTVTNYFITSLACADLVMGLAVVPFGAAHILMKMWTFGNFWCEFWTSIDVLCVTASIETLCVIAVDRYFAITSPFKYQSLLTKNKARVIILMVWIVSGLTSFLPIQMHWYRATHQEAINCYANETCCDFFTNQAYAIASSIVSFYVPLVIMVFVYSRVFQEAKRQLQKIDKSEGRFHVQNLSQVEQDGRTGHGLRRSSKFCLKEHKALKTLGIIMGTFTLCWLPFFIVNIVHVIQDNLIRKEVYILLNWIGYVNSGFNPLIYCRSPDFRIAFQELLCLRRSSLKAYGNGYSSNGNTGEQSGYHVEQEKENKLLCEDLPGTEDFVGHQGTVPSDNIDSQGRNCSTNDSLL
HNF4A DNA FP = change in binding of human HNF4 alpha to DNA; actives 0.3% (n = 360,000); activity change, % at 10 µM; HNF4a-FITC DNA binding, fluorescence polarization, 1 h; in the data active = activity change above about 30%, passing the limit was not always enough;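 also: controls were the assay level and a saturating level of protein; the project sought stronger binding though the title names inhibitors; some compounds called inactive have numbers as strong as hits; positive values seem to mean higher polarization but the record does not say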
FGF22 binding = FGF22 (human) thermal shift binding | recombinant FGF22 thermal shift, SYPRO orange fluorescence; percent of sucrose octasulfate shift, DMSO zero | calls only at 9.99 µM | actives 1.5% (n = 340,000);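 active = melting point raised past a set limit in the mean and every replicate; three in four hits are not shown here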
Target sequence (Q9HCT0 whole entry, looked up): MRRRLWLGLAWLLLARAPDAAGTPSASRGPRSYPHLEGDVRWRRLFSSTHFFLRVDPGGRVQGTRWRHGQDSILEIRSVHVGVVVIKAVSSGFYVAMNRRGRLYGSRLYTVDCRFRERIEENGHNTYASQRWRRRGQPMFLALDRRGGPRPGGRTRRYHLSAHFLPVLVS
UCH37 DUB inh = inhibitors of human deubiquitinating enzyme UCH37; Q9Y5K5; purified proteasome/UCH37, Ub-AMC cleavage fluorescence; actives 0.33% (n = 330,000); inhibition, % (concentration not given with the values); AID 588478;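 active = mean of two replicates above 20%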;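 also: 0% = compound-free wells with enzyme and 100% = wells lacking proteasome; stock transfer was 100 nL into about 20 µL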
Target sequence (Q9Y5K5 whole entry, looked up): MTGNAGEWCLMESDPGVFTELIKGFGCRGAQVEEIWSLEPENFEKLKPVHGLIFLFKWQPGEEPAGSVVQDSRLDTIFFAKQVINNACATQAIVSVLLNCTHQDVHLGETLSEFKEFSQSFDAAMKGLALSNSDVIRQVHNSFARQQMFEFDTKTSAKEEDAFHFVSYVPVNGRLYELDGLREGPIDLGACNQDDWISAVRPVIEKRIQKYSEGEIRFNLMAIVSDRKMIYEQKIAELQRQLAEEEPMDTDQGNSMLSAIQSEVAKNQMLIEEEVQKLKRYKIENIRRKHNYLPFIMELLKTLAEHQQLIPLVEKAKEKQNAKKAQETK
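Material: human UCH37 enzyme supplied as purified proteasome complex / Amount: 0.15 nM proteasome as dispensed / Buffer or medium: pH 7.4 Tris-HCl (50 mM) with ovalbumin, ATP-MgCl2, DTT / Times: preincubation 30 min, reaction 25 min, room temperature / Technique: AMC fluorescence from Ub-AMC cleavage, excitation 355 nm, emission 460 nm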
ALR inh = blocks human ALR sulfhydryl oxidase activity; purified ALR, DTT oxidation, H2O2 HRP-luminol luminescence; actives 3.8% (n = 290,000); AID 485317; inhibition, % (no concentration beside the values);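 active = mean and each replicate at 75% or more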;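 also: stock transfer was 7.5 nL into about 7.5 µL; 0% = neutral wells and 100% = wells with inactivated enzyme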
E coli growth = E. coli growth inhibition; Escherichia coli growth, OD600, 23 h; hits give low values; OD600 absorbance (concentration not given with the values); actives 0.21% (n = 330,000);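 active = OD600 absorbance below the run mean of sample wells minus 3.6 SD, in any replicate, cut at about 0.56 in these data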;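 also: stock transfer was 300 nL into about 60 µL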
* hit, by the source's call; i = inactive; x = not tested or not shown. These rows are one share of the data, so the mix of outcomes need not match the whole.

smiles	B2AR ag	LANA-H2A inh	UCH37 DUB inh	ALR inh	HNF4A DNA FP	FGF22 binding	E coli growth
COCCN(CC(=O)NC1CCCCC1)C(=O)/C=C/C(=O)c1ccc(OC)cc1O	91*	x	3.2	x	2.2	i	0.67
CC(C)n1nnnc1SCC(=O)NCc1ccco1	7	1.2	-1.3	25	-2.1	x	0.73
O=C(CN(C(=O)CCC(=O)Nc1ccccn1)c1ccc2c(c1)OCO2)NCc1ccco1	1	-2.4	0.5	x	-3.0	x	0.78
O=S(=O)(c1ccc(F)cc1)N1CCN(CC(O)COCC2CCCO2)CC1 (centres undefined)	2	x	0.2	x	1.0	i	0.72
CC1CCCN(S(=O)(=O)CCNC(=O)c2ccccc2)C1 (centres undefined)	-2	-6.0	1.9	-2	0.1	i	0.61
NC1=NC(=O)/C(=C/c2ccc(Cl)cc2Cl)S1	-8	-5.0	-20	4	2.0	i	0.7
COc1ccccc1C(=O)Nc1ccc(-c2nnn(CC(=O)NCc3ccco3)n2)cc1	-10	-4.5	-31	1	0.8	i	0.73
N#Cc1cn(-c2ccccc2)nc1-c1ccco1	-3	-0.5	-1.9	2	5.4	x	0.77
CC1CC(C)CN(C(=O)c2ccc(C(=O)c3ccccc3)cc2)C1 (centres undefined)	-8	2.7	2.0	-5	-2.2	i	0.66
CCN1CCN(Cc2nc(N)nc(Nc3ccc(C)c(C)c3)n2)CC1	8	6.7	3.3	1	2.5	x	0.69
COc1cc2c(C(=O)NCc3ccccn3)cn(C)c(=O)c2cc1OC	-5	1.1	5.0	-4	3.7	x	0.7
O=C(CN1C(=O)CSC1=O)NC1CCCCC1	2	-0.8	4.0	-4	-4.9	x	0.67
CCc1cc(=O)oc2c3c(cc(OCC(=O)NCCCOC)c12)OC(C)(C)CC3	-10	6.5	i	-5	0.7	i	0.68
Nc1nc(NCCO)nc(N2CCCCCC2)c1[N+](=O)[O-]	-3	-2.2	9.5	2	3.4	i	0.7
CCOc1ccc(C(=O)Nc2ncn[nH]2)cc1	7	0.6	-0.1	-13	2.7	i	0.63
CCN(C(=O)COC(=O)CCOc1ccccc1)c1c(N)n(Cc2ccccc2)c(=O)[nH]c1=O	-3	-1.6	0.7	-1	-0.8	i	0.69
COC(=O)c1ccc(NC(=S)N(Cc2cccnc2)Cc2ccco2)cc1	-4	5.5	2.1	-2	0.3	i	0.7
CC1=C(C(=O)Nc2cccc(C(=O)N3CCN(c4cccc(C(F)(F)F)c4)CC3)c2)SCCO1	8	-2.2	4.7	-6	2.1	i	0.7
Cc1ccc(C(=O)NCCc2csc(C)n2)cc1	-95	-3.8	1.7	2	0.9	i	0.73
COc1ccccc1N1CCN(C(c2cc3ccc(C)cc3[nH]c2=O)c2nnnn2C2CCCC2)CC1 (centres undefined)	0	-0.7	0.6	x	0.9	x	0.69
CCOc1ccc(OCCCCNC(C)(C)C)cc1	7	-1.7	1.4	-8	-1.7	i	0.7
C/C(N)=C(/C#N)C(=O)CSc1n[nH]c(-c2cccs2)n1	-8	2.0	3.7	-9	1.2	i	0.72
COC(=O)c1ccc2nc(NC(=O)CSCC(=O)OCC(=O)c3ccccc3)sc2c1	9	-4.4	-1.4	-47	-1.0	i	0.62
Cn1cc(S(=O)(=O)Nc2ccc(F)c(Cl)c2)c(=O)n(C)c1=O	4	-2.7	2.6	x	-0.4	i	0.8
Cc1nn(C)c2ncc(C(=O)c3cc(F)ccc3O)cc12	-1	-1.2	6.8	-2	0.2	x	0.74
C=CCNC(=O)[C@H]1N2C(=O)c3ccccc3C2SC1(C)C (some centres undefined)	0	3.6	4.7	-7	2.4	i	0.68
O=C(CCc1nc2ccccc2c(=O)[nH]1)N1CCN(S(=O)(=O)c2cccc([N+](=O)[O-])c2)CC1	9	0.9	-0.4	-6	3.7	i	0.66
CN=C(N)NCCC[C@H](N)C(=O)O	-3	-4.1	5.7	13	0.2	i	x
Fc1cccc(Cl)c1CSc1ncn[nH]1	4	5.4	0.9	-33	-1.4	x	0.66
CC(C)(C)NNC(=S)Nc1ccc(S(=O)(=O)N2CCOCC2)cc1	3	-1.3	3.4	11	-3.0	i	0.69

Continued:
smiles	B2AR ag	LANA-H2A inh	UCH37 DUB inh	ALR inh	HNF4A DNA FP	FGF22 binding	E coli growth
O=C(N/N=C/C=C/c1ccco1)C(O)c1ccccc1 (centres undefined)	-1	0.6	x	-5	5.3	x	x
CC1=CS(=O)(=O)CC1Sc1ncn[nH]1 (centres undefined)	-9	0.0	2.1	17	-0.7	x	0.68
O=C(NCC(c1cccs1)N1CCOCC1)c1cc([N+](=O)[O-])ccc1Cl (centres undefined)	-7	-3.9	2.4	x	-0.1	x	0.66
CC(O)c1ccc(OCCN(C)c2ccccn2)cc1 (centres undefined)	1	0.2	-7.9	x	0.1	i	0.69
CCn1c(-c2ccccc2Cl)nn(CC(=O)Nc2ccc(OC)cc2)c1=S	3	-1.2	-0.9	-5	0.3	x	0.74
CCN(CC)CCOC(=O)c1ccc(NC(=O)c2cn(-c3ccccc3)nc2-c2cccs2)cc1	8	x	6.2	x	6.3	x	0.69
Cc1ccc(OC(C)C(=O)N(Cc2cccs2)C2CCS(=O)(=O)C2)cc1C (centres undefined)	-3	-3.1	2.8	-4	2.5	i	0.6
COC(=O)c1ccc(NC(=O)CCN2CCN(CCC(=O)Nc3ccc(C(=O)OC)cc3)CC2)cc1	-6	1.4	0.5	-6	2.8	x	0.78
COc1ccc(CCNC(=O)C2CCCN2C(=O)Nc2ccccc2)cc1OC (centres undefined)	0	4.3	4.2	-1	-0.9	i	0.69
CCN(CC)S(=O)(=O)c1cc(C(=O)Nc2ccccc2C(=O)O)ccc1OC	-1	-13	4.6	-3	-2.4	i	0.66
O=C(CSc1ccccc1)Nc1ccc(N2CCN(c3ccccc3)CC2)c(F)c1	-8	-7.1	4.7	100*	0.0	x	0.75
O=C(CCc1ccc(S(=O)(=O)NC2CCCCC2)cc1)Nc1ccccc1	-6	-1.4	1.0	-5	3.0	x	0.76
CC(=O)N=c1sc2nc3ccccc3nc2n1N(C(C)=O)C(C)=O	6	2.3	-27	58	0.2	x	0.69
O=C1C(Cc2ccccc2)Nc2ncnc(N3CCc4ccccc4C3)c2N1Cc1ccccc1 (centres undefined)	5	0.9	-0.9	7	1.8	x	x
C=CCN(C(=O)CCC(=O)Nc1cc(C)on1)C(C(=O)NC1CCCC1)c1ccc(Cl)cc1 (centres undefined)	-11	-3.5	3.1	x	4.8	i	0.65
CN(Cc1cccs1)C(=O)CSc1nnnn1C	10	x	5.0	x	1.0	x	0.79
O=C(O)c1cc2cc(Cl)ccc2oc1=O	3	0.0	-2.5	-8	-2.3	x	0.65
CC(C)N1CCC(NC(=O)NC2CCCCC2)CC1	-1	-0.6	-1.0	-6	-2.9	i	0.68
COc1ccccc1Nc1nc(NCc2ccco2)nc(N)c1[N+](=O)[O-]	1	-5.5	x	0	2.5	i	x
CCS(=O)(=O)N1Cc2ccccc2CC1C(=O)Nc1ccc(F)c(F)c1F (centres undefined)	-2	7.5	-0.2	3	1.0	i	0.66
CCn1c(-c2ccccc2SC)n[nH]c1=S	2	3.6	0.2	5	6.0	i	0.67
COc1ccccc1NC(=O)CSc1ccc(-c2ccc(-n3ccnc3)cc2)nn1	22	-4.3	-0.5	-7	1.3	i	0.67
C=CCNc1nc(C)c(CNc2c(C)cc(C)cc2C)nc1C#N	1	-1.7	2.8	x	-2.3	i	0.67
CC(=O)NCCNc1nc2c(-c3cccc(C)c3)nnn2c2ccccc12	12	5.3	-20	-4	-0.2	i	0.7
CCOc1ccc(CCNC(=O)c2cc(S(=O)(=O)N3CCOCC3)ccc2C)cc1OCC	0	-7.8	2.7	-2	-3.0	i	0.67
CCNC(=S)NNC(=O)c1cc(C)nc2ccccc12	-2	0.3	0.2	23	4.0	x	0.62
Clc1ccccc1/C=N/N1CCN(Cc2ccccc2)CC1	-1	-2.2	x	-12	1.1	i	x
Cc1nn(Cc2ccccc2)c(C)c1NC(=O)CCCn1nc([N+](=O)[O-])c(Cl)c1C	-1	-1.2	1.2	-10	-1.4	x	0.71
Nc1ccccc1SCC(=O)Nc1ccc2c(c1)OCCO2	-2	3.3	3.8	-3	3.0	i	0.69
N#Cc1ccc(CSc2nnc3[nH]c(=O)cc(N)n23)cc1	11	-0.5	2.3	-2	-1.2	x	0.71

ALR inh: hit marks shown above.
mol,B2AR ag,LANA-H2A inh,UCH37 DUB inh,ALR inh,HNF4A DNA FP,FGF22 binding
O=C(CSc1ccccc1)Nc1ccc(N2CCN(c3ccccc3)CC2)c(F)c1,-8,-7.1,4.7,100*,0.0,x

Later entries
smiles	B2AR ag	LANA-H2A inh	UCH37 DUB inh	ALR inh	HNF4A DNA FP	FGF22 binding	E coli growth
CN(C)S(=O)(=O)c1cccc(NC(=S)N2CCc3ccccc32)c1	3	1.0	3.1	-4	1.9	i	0.72
CCOC(=O)c1cnc2ccccc2c1NCCO	3	16*	3.0	-10	-3.4	x	0.7
CCOc1ccccc1-n1nnnc1SCC(=O)N1CCCC1=O	-7	0.7	3.0	3	1.5	i	0.66
O=C(/C=C/c1cccc(Cl)c1)NNC(=O)c1ccncc1	-2	-2.0	3.7	18	2.8	i	0.64
Cc1cc(C(=O)OCC(=O)N2CC(C)OC(C)C2)c(C)n1-c1ccccc1 (centres undefined)	1	-0.7	1.8	-1	-1.2	i	0.7
Cc1cc(C)n(CCNCc2c(C(=O)N3C[C@@H](C)O[C@@H](C)C3)nc3ccc(Cl)cn23)n1	-2	-3.6	0.5	1	1.3	i	0.71
O=c1[nH]n(-c2ccccn2)c(=O)c2ccccc12	0	0.3	4.8	52	-0.4	x	0.74
O=C(O)CCn1c2ccccc2c2nc3ccccc3nc21	-2	-7.4	14	x	1.5	i	0.68
COc1ccccc1CCC(=O)OCC(=O)Nc1cccc(S(=O)(=O)N2CCOCC2)c1	-4	-1.9	0.0	-6	0.5	i	0.65
Cc1ccc(S(=O)(=O)Nc2ccncc2)c(C)c1	1	0.2	2.6	4	-2.0	i	0.69
Cn1c(SCC(=O)Nc2ccccc2)nc(O)cc1=O	12	-0.5	5.8	99*	27	i	0.69
Cc1cc(C)nc(SCC(=O)O)n1	3	2.7	-1.0	3	-1.0	x	0.73
COCCNC(=O)C(c1ccc(C)cc1)N(C(=O)CCC(=O)Nc1ccccn1)c1ccccc1C (centres undefined)	-15	-5.8	4.9	x	2.1	i	0.65
COc1cccc(COC(=O)C2CCN(C(=O)c3ccc(F)cc3)CC2)c1OC	9	-1.8	0.5	x	0.6	i	0.63
CCC(C)(C)NC(=O)c1ccc(S(=O)(=O)N(C)c2ccccc2OC)cc1	10	-1.7	1.4	-4	-1.4	x	0.74
O=C(NCCc1ccc(Cl)cc1)C12CC3CC(CC(O)(C3)C1)C2	-2	-15	1.0	-6	-4.1	i	0.73
CC1C(=O)CC(c2ccc([N+](=O)[O-])cc2)NC1c1ccc([N+](=O)[O-])cc1 (centres undefined)	5	2.4	2.1	4	-1.8	i	0.71
COc1cc(C(=O)NCC(=O)NNC(=O)C2COc3ccccc3O2)cc(OC)c1OC (centres undefined)	-12	-12	1.5	-3	3.0	i	0.63
COCCCNC(=O)COc1ccc(-c2nccc(-c3ccccn3)n2)cc1	-18	-1.3	3.9	x	3.6	x	0.78
O=C1CC(N2CCN(Cc3ccc4c(c3)OCO4)CC2)C(=O)N1CCc1ccccc1 (centres undefined)	-8	2.8	-1.1	-13	-1.7	x	0.66
O=C(Cc1ccccc1)Nn1c(O)c(/C=C2\C=Nc3ccccc32)sc1=S	-8	-7.4	6.9	-9	53*	x	0.73
O=C(Nc1nnc(-c2cccs2)o1)c1cccc(F)c1	3	-0.7	8.3	x	-2.5	i	0.35*

Assay outcomes deposited in PubChem by several laboratories.
